StopGo RLuc – FMDV 2A StopGo reporter, Renilla signal; Potency, µM (titrated, usually from 57.5 µM), inactives show top-dose signal change, negative = less light; HEK cells with a luciferase reporter of 2A StopGo recoding; 120,000 compounds, 0.32% hits; active means well fitted falling curve with a large enough effect; inconclusive means small, poorly fitted or top-dose-only effect; inactive means no such curve, though single readings can be large or run the other way; also: nearly all actives have a fitted effect of over 55% in size; overnight with compound
2A firefly – lowers the firefly signal of an FMDV 2A StopGo reporter; Potency, µM (top dose mostly 57.5 µM), inactives show at the top dose signal change, negative = less light; 120,000 compounds, 0.23% hits; HEK cells with a luciferase reporter of 2A StopGo recoding; active = well fitted falling curve with a large enough effect; inconclusive = small, poorly fitted or top-dose-only effect; inactive = no such curve, though single readings can be large or run the other way; also: nearly all actives have a fitted effect of over 60% in size; overnight with compound
Starred values were filed as active, the others as inactive; ? = inconclusive; & = joins results of further samples; [ ] = dose if it differs, or a comment. % is scaled to controls: 0 for no effect and ±100 for the full control effect; potency is read from the fitted curve at half-maximal effect. Not all compounds are listed (hit frequency here may not be typical).

SMILES | StopGo RLuc | 2A firefly
Cc1cccc(C(=O)NC(C)c2ccc(-c3ccccc3)cc2)c1 (centres undefined) | 18% | 32%[activator]
CN(C)c1ccc(C(=O)/C=C/c2ccncc2)cc1 | 16% | 0%
O=C(Cc1ccccc1)NCCc1c[nH]c2ccccc12 | 6% | 0%
Cc1oc2ncn(C)c(=O)c2c1C(=O)Nc1ccc(F)cc1 | -7% | -23%
CSc1nc(=O)c2c(n1C)NC(=O)CC2c1ccccc1OC(C)C (centres undefined) | 0% | -2%
Cn1c(=O)c2c(nc(NCCOCCO)n2Cc2ccccc2Br)n(C)c1=O | -4% | 2%
COc1ccc(CCNC(=O)C2=C(C)C(=O)OC23CCCCC3)c(OC)c1OC | -13% | -2%
Cc1c(-c2ccccc2)oc2c(C(=O)N3CCCN(CC(=O)NC(C)(C)C)CC3)cccc2c1=O | 51%[activator] | 42%[activator]
O=C(NC(Cc1ccccc1)C(=O)O)c1cccc(C(F)(F)F)c1 (centres undefined) | -7%[1.06 µM] | -4%
Cc1cc(C)cc(NC2=C(c3ccccc3)C(=O)c3ccccc32)c1 | -11% | -16%
Cc1cc(C)cc(NC(=O)N2CCc3cc(S(=O)(=O)N4CCC(C)CC4)ccc32)c1 | 1% | -3%
Cc1ccc(-c2nn(-c3ccc(F)cc3F)c3c2cnc2c(F)cccc23)cc1 | 9% | 38%[activator]
CC1CCCCC1NC(=O)C1CC1C (centres undefined) | -1% | -1%
Cc1ccc(S(=O)(=O)NCCC(=O)Nc2nccs2)cc1C | 73%[activator] | 2%
N#Cc1cccnc1NCc1cccc(NC(=O)c2ccncc2)c1 | ? | ?
CC1(C)CC(=O)C2=C(C1)N(N1CCOCC1)C(N)=C(C#N)C2c1ccccc1Cl (centres undefined) | 7% | 13%
CCCCCSc1nc2c(c(=O)[nH]c(=O)n2C)n1C | -1% | 5%
C=CCNC(=O)c1cc(=O)[nH]c2ccc(S(=O)(=O)N(CC)CC)cc12 | -12% | -8%
O=C(NCc1cccnc1-n1cccn1)c1ccc(-c2ccc(Cl)cc2)s1 | 2% | 0%
c1ccc2c(-c3csc(NC4CCCC4)n3)c[nH]c2c1 | -15% | 74%[activator]
O=C(c1cc2ccccc2o1)N(Cc1ccc(F)cc1)C1CC1 | 8%[1.06 µM] | -21%
COC(=O)CCNC(=O)c1ccc(-c2ccccc2)cc1 | 12% | 157%[activator]
OCc1ccc(Cl)cc1Cl | -6% | -13%
O=C(/C=C/c1ccc(-c2cc(Cl)ccc2Cl)o1)c1ccc(Cl)cc1 | 1% | -2%
CCOC(=O)c1c(S(=O)(=O)N2CCCCC2)nn(C)c1C | 3% | 0%
Cc1ccc(S(=O)(=O)NCc2ccc(C(=O)N3CCN(c4cccc(C)c4C)CC3)cc2)cc1 | -23% | ?
Cc1cc(SCc2cccc(F)c2)c2ccccc2n1 | -3%[1.06 µM] | ?
CCc1nc(NCCN2CCOCC2)c(C#N)c2c1CCCC2 | -13% | -1%
CC(C)CNC(=O)c1cc(-c2ccncc2)nc2ccccc12 | 0% | 21%
COc1ccc(CCNC(=O)c2nc(SCc3ccc(F)cc3)ncc2Cl)cc1OC | ? | ?
Cn1nc(C(=O)OCC(=O)Nc2ccc(OC(F)F)cc2)c2ccccc2c1=O | -13% | -3%
COc1ccc(CCCN)cc1 | -5% | 12%
CC(C)c1cnc2c(c1SCC(=O)Nc1ccc(OC(F)(F)F)cc1)c(=O)n(C)c(=O)n2C | 6% | -22%
Cc1oc(-c2cccs2)nc1C(=O)NCCN1CCOCC1 | -3% | 9%
Cc1ccccc1C(=O)Nc1ccc2c(c1)nc(CCn1ccccc1=O)n2C | -5% | 0%
CC(C)c1ccc(NC(=O)Cn2c(=O)n(CC3CCC(C(=O)NCCc4ccccc4)CC3)c(=O)c3ccccc32)cc1 (centres undefined) | 1% | 4%
S=C(NCCCc1ccccc1)Nc1ccc(Br)cc1Cl | 285%[activator] | 0%
Cn1ccc2c(C(=O)Nc3nnc(C4CC4)s3)cccc21 | 13% | 121%[activator]
CCN(CC)C(=O)CSc1nc2cc3c(cc2c(=O)n1Cc1ccc(C(=O)NCCc2ccc(OC)c(OC)c2)cc1)OCO3 | -4% | -18%
O=C(NCc1ccccc1Cl)C(=O)Nc1ccc2cc[nH]c2c1 | 4% | 84%[activator]
Cc1oc2cc(OCC(N)=O)ccc2c(=O)c1Oc1ccccc1Br | 4% | 10%
CCOc1ccc(NC(=O)COc2ccc(Cl)cc2Cl)c2cccnc12 | -15% | -2%
CC(/C=C/C=C/c1ccccc1)=N\NC(=O)C1CC1c1ccc(C(C)(C)C)cc1 (centres undefined) | 3% | 17%
Cc1ccccc1CN1CCC(CNC(=O)c2cc3ccc4cccnc4c3[nH]2)CC1 | -12% | 5%
COc1ccc(-c2cc(OC(=O)c3ccccc3Cl)c3c(C)oc(C)c3c(=O)c2)cc1OC | 51%[activator] | -22%
CCOc1ccccc1CNC(=O)CCCn1ncn2c(cc3occc32)c1=O | 1% | -1%
CCn1c(SCC(=O)c2sc3ccccc3c2C)nnc1C1CC1 | -1% | 153%[activator]
CC(C)(C)NC(=O)NC(=O)CSC1=Nc2ccccc2CS1 | -4% | 25%
COC(=O)c1cccc(NC(=O)Nc2cc(-c3nc4cc(C)ccc4o3)ccc2OC)c1 | -6% | 191%[activator]
CCN(C(=O)c1cnc(N2CCOCC2)c2ccccc12)c1ccccc1C | 7% | -15%
CSc1ccc(CCNc2ncnc3onc(C)c23)cc1 | -9% | ?
Cc1cccc(N2CCN(C(=O)CN3C(=O)CSc4c3c(C)nn4-c3ccccc3)CC2)c1C | -6% | -13%
COc1ccccc1-c1noc(-c2ccc(N3CCN(c4ccccc4)CC3)c([N+](=O)[O-])c2)n1 | -2% | 21%
C=CCC1Cc2c(N)cccc2C(CC=C)N1 (centres undefined) | -9% | -6%
Cc1oc2cc(OCC(N)=O)ccc2c(=O)c1Oc1ccc(C(C)C)cc1 | 50%[activator] | 15%
COc1ccc(NC(=O)c2ccc3c(c2)c(C)c(C)n3Cc2ccc(F)cc2)c(OC)c1 | 15% | 1%
COc1ccc(-c2nc3c(c(SC(C)C(=O)Nc4ccc(C)cc4)n2)COC(C)(C)C3)cc1 (centres undefined) | 9% | 14%
Cc1cccc(COc2ccc(/C=C(\C#N)c3nc4ccccc4[nH]3)cc2)c1 | ? | 0%
CCC(=O)NCc1ccc(-c2nc3ccccc3s2)cc1 | 26% | 59%[activator]
CCNc1c(NC(=O)Nc2ccccc2F)c(=O)oc2ccccc12 | 2% | 4%

New compounds follow.
SMILES | StopGo RLuc | 2A firefly
Cc1ccc(OCC(=O)OCc2cc(=O)n3nc(-c4cccs4)sc3n2)cc1 | -5% | 4%
Cc1ccc(C(=O)OC(C)C(=O)NC(=O)NC2CC2)c(O)c1 (centres undefined) | 34% | 70%[activator]
O=C(O)c1cc(Br)ccc1Cl | 42% | 76%[activator]
Cc1sc(NC(=O)c2ccco2)c(C(Nc2ccccn2)c2ccccc2)c1C (centres undefined) | 1% | 33%[activator]
CC(NC(=O)C1CCCCC1)C12CC3CC(CC(C3)C1)C2 (centres undefined) | 7% | 18%
CCC(C)NC(=O)NC1CCN(c2nc3ccccc3n(CC)c2=O)CC1 (centres undefined) | -4% | 1%
Cc1ccc(-n2c(=O)c3cccnc3n2CC(=O)NCc2ccc(Cl)cc2)cc1 | 8% | -9%
Cc1ccc(Cl)cc1NC(=O)CSCc1cnn(-c2ccccc2)c1-n1cccc1 | 0% | 0%
O=C(CSc1ncnc2ccccc12)Nc1ccc(Cl)c(C(F)(F)F)c1 | -26% | 8%
Cc1[nH]c2c(C(=O)N3CCC(C)CC3)cccc2c1C | 199%[activator] | 45%[activator]
CC1=C(C(=O)NCc2cccc(Cl)c2)C2(CCCCCC2)OC1=O | 7% | 0%
CC(C)CC(NC(=O)OCc1ccccc1)C(=O)NC(C)C(=O)O (centres undefined) | 17% | 7%
COc1ccccc1C1c2c(n[nH]c2C)Nc2[nH]c(=O)[nH]c(=O)c21 (centres undefined) | 0% | 8%
Cc1n[nH]c(=O)nc1SCC(=O)Nc1ccc(C(=O)OC(C)C)cc1 | 10% | 70%[activator]
CCc1nn2c(=O)cc(COC(=O)c3cccs3)nc2s1 | -8% | 14%
CCOC(=O)c1cnc2cc(-c3ccc(Cl)cc3)nn2c1-c1ccccc1 | -8% | -10%
COc1ccc(NC(=O)c2cc(=O)c3ccccc3o2)c(OC)c1 | -3% | 163%[activator]
CSC(=S)NN=C1CCCC1 | -2% | 48%[activator]
Cc1nc2ccccc2nc1SCC(=O)N1CCOC(C)C1 (centres undefined) | -14% | -3%
CN1CCN(c2cc3c(nn2)Oc2ccccc2N3C)CC1 | -19%[23.8 µM] | 44%[activator][27 µM]
C=C(C)CN(CC)C(=O)Cc1csc(C(C)C)n1 | 27% | 12%
COc1ccc(S(=O)(=O)N2CCCC2)cc1-c1nc(C(C)C)no1 | 141%[activator] | 23%
CC1=C(c2ccc(F)cc2)S(=O)(=O)NC1=NCc1ccccc1F | 67%[activator] | -17%
CC1=C(C(=O)Nc2cccc(F)c2)C2(CCCCC2)OC1=O | -3% | -3%
Cn1c(=O)c2nc(SCC(=O)Nc3ccc(F)c(F)c3)n(C)c2n(C)c1=O | -3% | 6%
Cc1c(C(=O)NC2=NCCS2)sc2cccc(F)c12 | 64%[activator] | 0%
CCN(c1ccc(NC(=O)COc2ccccc2C(=O)c2cc(C#N)c(=O)n(C3CC3)c2)cc1)C(C)C | 1% | 11%
Cc1ccc(CNc2nc3c(c(=O)n(C)c(=O)n3C)n2Cc2ccc(Cl)cc2)cc1 | -1% | -23%
O=C(O)/C=C/c1cc(Br)ccc1F | 14% | 27%
COc1ccc(Nc2nc(-c3ccccc3)c3cc(Br)ccc3n2)cc1 | 3% | 0%
CCCN(C)c1ccc(/C=N/NC(=S)Nc2cccc(C)c2)cc1 | 28% | 18%
S=C(NCCC(c1ccccc1)c1ccccc1)NC1CC1 | 0% | 6%
Cc1[nH]c2ccccc2c1SCCNC(=O)c1ccncc1 | -5% | -12%
O=C(O)/C=C/c1ccc(-c2ccc(Br)cc2)o1 | 5% | 140%[activator]
Cc1ccc(CC2(O)CC(C)N(C)CC2C)cc1 (centres undefined) | 13% | 0%
COC(=O)C(C)(C)NC(=O)c1ccc2c(c1)NC(=O)CS2 | 0% | -15%
CCCCNC(=O)Cn1c(=O)cc(C)c2c(C)nn(-c3cccc(Cl)c3C)c21 | -18% | 2%
COc1ccc2oc(=O)c(C(=O)NCCc3c(C)[nH]c4c(Cl)cccc34)cc2c1 | 1% | -9%
COc1ccc(-c2cc(C(=O)O)n(Cc3ccccc3)n2)cc1 | 2% | -6%
COc1ccccc1NC(=O)CSc1ncc(CO)n1Cc1ccc(F)cc1 | 6%&5% | 2%&11%
O=C(O)c1cccc(COc2cccc(Br)c2)c1 | 13% | -82%
CCOC(=O)C1=C(N)OC(C)=C(C(=O)OC(C)C)C12C(=O)Nc1ccc(Br)cc12 (centres undefined) | 67%[activator][1.06 µM] | ?
O=C(c1n[nH]c(=O)c2ccccc12)N1CCC(n2c(=O)[nH]c3ccccc32)CC1 | -10% | 0%
O=S(=O)(c1cccs1)N1CCOc2ccc(COCc3ccc(Cl)cc3)cc2C1 | ? | ?
COc1ccccc1CCNC(=O)c1cccn1-c1nnc(N2CCCCC2)s1 | 3% | 81%[activator]
CN(CCOc1ccccc1F)c1nc(-c2cccnc2)nc2ccccc12 | -2% | 7%

Screens as filed in PubChem.
